Screens as filed in PubChem.
ClpP mod – qHTS Assay for Activators of ClpP; purified B. subtilis ClpP, FRET peptide cleavage, 20 min; Potency, µM (doses to about 57.5 µM), without a hit: at the highest dose activity change, negative = active; 1.9% of 340,000 active; ATP-dependent Clp protease proteolytic subunit (Bacillus subtilis (strain 168)), P80244; AID 651965, 2013; active = well fitted falling curve with a large enough effect; inconclusive = small, poorly fitted or top-dose-only effect; inactive = no such curve, though single readings can be large or run the other way; note: potency is the fitted concentration of half-maximal effect; the source files actives as falling curves though it sought activators and does not explain the sign; nearly all actives have a fitted effect of over 65% in size; many hits overshoot -100%
Target sequence (P80244 whole entry, looked up): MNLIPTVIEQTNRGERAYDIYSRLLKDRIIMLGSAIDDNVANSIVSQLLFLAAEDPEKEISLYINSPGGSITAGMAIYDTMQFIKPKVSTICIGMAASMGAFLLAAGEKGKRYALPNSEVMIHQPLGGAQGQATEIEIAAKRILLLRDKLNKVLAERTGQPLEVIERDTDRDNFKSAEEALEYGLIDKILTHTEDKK
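FRET quenching reversal measured ClpP activation: 10 microg/mL B. subtilis ClpP at pH 8 with the FRET-FV decapeptide, read at 430 nm after 320 nm excitation. The 20-min minus 0-min signal was scaled between DMSO/no-enzyme wells and ADEP (5.8 microM final).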
TRPML1 ag – qHTS for Agonists of the Human Mucolipin Transient Receptor Potential 1 (TRPML1) | Mucolipin-1 (Homo sapiens), Q9GZU1 | TRPML1-expressing cells, Ca2+ dye fluorescence, FDSS; host cell line not named in the record; reference of the full effect not given here | activation, % (concentration not given with the values) | 0.12% of 410,000 active | AID 624414, 2012; in the data active = activation above about 50%; inconclusive = about 30% to 50%; inactive = below about 30%; note: 0% is about no effect; the text of the record puts the active cut at 80%
Target sequence (Q9GZU1 whole entry, looked up): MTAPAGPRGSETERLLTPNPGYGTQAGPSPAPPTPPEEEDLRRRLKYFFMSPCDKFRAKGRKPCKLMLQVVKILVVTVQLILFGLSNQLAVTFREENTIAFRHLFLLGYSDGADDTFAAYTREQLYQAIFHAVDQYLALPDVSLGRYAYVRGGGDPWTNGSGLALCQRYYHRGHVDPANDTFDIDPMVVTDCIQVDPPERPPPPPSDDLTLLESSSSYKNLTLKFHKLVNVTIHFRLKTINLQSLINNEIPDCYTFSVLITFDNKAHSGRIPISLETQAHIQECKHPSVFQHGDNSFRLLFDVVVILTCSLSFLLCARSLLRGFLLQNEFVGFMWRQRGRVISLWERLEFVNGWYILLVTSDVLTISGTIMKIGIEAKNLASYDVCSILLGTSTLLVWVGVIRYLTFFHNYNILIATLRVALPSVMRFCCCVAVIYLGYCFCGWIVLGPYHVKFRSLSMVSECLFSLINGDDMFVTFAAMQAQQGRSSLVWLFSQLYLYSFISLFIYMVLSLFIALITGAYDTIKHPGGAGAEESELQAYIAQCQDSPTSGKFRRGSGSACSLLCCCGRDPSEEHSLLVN
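Kinetic FDSS Ca2+ read in Tet-induced TRPML1-DL cells (ABD Ca8 dye plus quencher, 45-90 min RT loading): baseline, then compound, then 110 s agonist window; EC80 agonist 54-4 at 4uM final added afterwards for a 110 s antagonist window.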
Menin-MLL FL inh – qHTS Assay for Inhibitors Targeting the Menin-MLL Interaction in MLL Related Leukemias: Competition With Fluorescein Labeled MLL-derived Peptide; 290,000 tested, under 10 active; FP activity change, % at 61.4 µM; AID 1766, 2009; Fluorescence polarization, fluorescein-MLL peptide displacement from menin; inconclusive = falling polarisation curve, or a change in total fluorescence; inactive = total fluorescence flat and polarisation flat or rising; no compound was filed as active; the % refers to the polarisation; negative = inhibition;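 note: % of control where 0% means no effect; inhibitors lower the polarisation; unlabelled MLL peptide was the positive control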
TRPML1 inh – qHTS for Inhibitors of the Human Mucolipin Transient Receptor Potential 1 (TRPML1); TRPML1-inducible cells, Ca2+ dye fluorescence, FDSS; stronger effect = lower value; inhibition of EC80 agonist-evoked calcium signal; activity change, negative = inhibition, % (no concentration beside the values); 0.02% of 390,000 active; AID 624415, 2012; in the data active means activity change below about -50%; inconclusive means about -30% to -50%; inactive means above about -30%;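 note: stimulus is agonist 54-4 at its EC80 concentration; % is set by controls: 0 for no effect and ±100 for the full control effect; compound concentration not given in the record; the text of the record puts the active cut at -80%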
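Calcium fluorescence in TRPML1-DL cells induced overnight with Tet: a 110 s read after compound pin addition, then a 110 s antagonist read after challenge with 54-4 at 4 uM final (EC80).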
gsp antag – qHTS for Antagonists of gsp, the Etiologic Mutation Responsible for Fibrous Dysplasia/McCune-Albright Syndrome: qHTS; gsp-mutant cells, cAMP HTRF, 30 min; control for the full effect not named in the record; Potency, µM (doses to about 76.9 µM), for inactives: top-dose activity change, negative = inhibition, usual class: inhibitors; 0.4% of 340,000 active; active = falling curve of any shape with a large fitted effect; inconclusive = falling curve, mostly with a smaller effect; inactive = flat or rising curve; cell line not stated here;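 note: intracellular cAMP measured with PDE inhibitor Ro 20-1724 present during compound exposure; potency is the fitted concentration of half-maximal effect; % is set by controls: 0 for no effect and ±100 for the full control effect; nearly all actives have a fitted effect of over 65% in size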
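HTRF cAMP read-out (cAMP-d2 plus anti-cAMP antibody-K in lysis buffer, 30 min RT). Before lysis, cells are exposed to compounds with […] for 30 min at 37C in DPBS containing Ca/Mg, BSA and Tween 20.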
gsp ag – qHTS for Agonist of gsp, the Etiologic Mutation Responsible for Fibrous Dysplasia/McCune-Albright Syndrome: qHTS; gsp mutant cells, cAMP HTRF, 30 min; control for the full effect not named in the record; Potency, µM (titrated, usually from 76.9 µM), without a hit: at the top dose activation (cAMP increase), most hits filed as activators; 0.13% of 340,000 active; active = well fitted activation curve with a large enough effect; inconclusive = small, poorly fitted or top-dose-only effect, or another doubt; inactive = no such curve, though single readings can be large or run the other way; cell line not stated here;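 note: phosphodiesterase inhibitor Ro 20-1724 added with compounds to block cAMP breakdown; potency is the fitted concentration of half-maximal effect; nearly all actives have a fitted effect of over 60% in size; about a fifth of the inactives were tested at one dose only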
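Cells in DMEM/10% FBS with G418 were pretreated with compounds in DMSO plus […] (300 uM stock) for 30 min at 37C. cAMP was measured by HTRF (cAMP-d2 plus anti-cAMP antibody-K) after 30 min at room temperature.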
* marks the source's active call; other numbers are inactive results; ? = inconclusive; · = no result given; [ ] = remark or other dose.

SMILES	ClpP mod	TRPML1 ag	Menin-MLL FL inh	TRPML1 inh	gsp antag	gsp ag
Cc1n[nH]c(C)c1CCN(C)C(=O)C1CCC(=O)N(CC2CCCCC2)C1 (configuration not stated)	-0.8%	0.5	·	-1	3%	-1%[15.4 µM]
CC(=O)Nc1ccc(S(=O)(=O)N2CCc3c(Cl)cccc3C2)cc1	1.0%	-1.0	-4.8	-22	7%	?
COc1ccccc1CN(C)C(=O)CSCC(=O)Nc1ccccc1F	0.4%	1.4	·	36	5%	-3%[15.4 µM]
O=C(NCCCN1CCOCC1)c1cccc(NS(=O)(=O)c2ccc(Br)cc2)c1	0.7%	0.1	·	-6	1%	17%
COCCn1cnc2c(c1=O)c1nc3ccccc3nc1n2/N=C/c1ccco1	-0.1%	1.0	-9.5	-16	?	-3%
CSCC[C@H](NC(=O)[C@@H]1Cc2c([nH]c3ccccc23)C2c3ccccc3C(=O)N21)C(=O)NCC1CCCO1 (some centres not stated)	-3.7%	·	-5.8	·	-8%	·
O=C(NCCCn1cccn1)C1CCC(=O)N(Cc2ccccc2F)C1 (configuration not stated)	-0.6%	-0.7	-0.3	0	-10%	-29%
Cc1ccc(CNC(=O)c2ccc3c(c2)S(=O)(=O)c2ccccc2C3=O)cc1	-1.1%	0.1	·	-7	3%	8%
Cn1c(N)c(C(=O)CSc2nnc(-c3ccccc3F)n2N)c(=O)n(C)c1=O	·	-0.3	-3.7	-6	9%	6%[15.4 µM]
Cc1ccsc1/C=N/NC(=O)c1ccc2nc[nH]c2c1	-1.0%	0.2	8.0	-9	6%	20%
CN(C(=O)c1ccc(NC(=O)Cc2cccc(NC(=O)C3CCN(C(=O)C4CCC4)CC3)c2)cc1)C1CCCC1	-0.4%	-0.1	·	24	11%	·
COc1ccccc1NC(=O)CC1Sc2ccc(C(F)(F)F)cc2NC1=O (configuration not stated)	0.6%	0.6	·	11	·	·
CCOC(=O)C1(COCc2ccccc2)CCCCC1=O (configuration not stated)	-2.6%	-0.1	·	8	·	13%
CNc1ccc(/C=C2\CSc3ccccc3C2=O)cc1[N+](=O)[O-]	-0.5%	0.5	3.0	-6	3%	-2%[15.4 µM]
CCC1(C)OC(=O)N2CCc3c(C)[nH]c4c(C)ccc(c34)C21C (configuration not stated)	-23%	-0.1	-0.5	-9	-17%	-31%[inhibitor]

Some of these compounds in order of heavy-atom count, smallest number first.
SMILES	ClpP mod	TRPML1 ag	Menin-MLL FL inh	TRPML1 inh	gsp antag	gsp ag
Cc1ccsc1/C=N/NC(=O)c1ccc2nc[nH]c2c1	-1.0%	0.2	8.0	-9	6%	20%
COc1ccccc1CN(C)C(=O)CSCC(=O)Nc1ccccc1F	0.4%	1.4	·	36	5%	-3%[15.4 µM]
Cc1ccc(CNC(=O)c2ccc3c(c2)S(=O)(=O)c2ccccc2C3=O)cc1	-1.1%	0.1	·	-7	3%	8%

(further entries)
SMILES	ClpP mod	TRPML1 ag	Menin-MLL FL inh	TRPML1 inh	gsp antag	gsp ag
COC(=O)C1=NN(C(=O)c2ccccc2)C(C)(O)C1 (configuration not stated)	-1.2%	0.7	1.8	20	6%	11%
Cc1ccc(Oc2ccc(OCC(=O)NC(CC(C)C)C(=O)O)cc2)cc1 (configuration not stated)	·	1.8	2.5	22	-8%	-12%[15.4 µM]
Cc1cc(NC(=O)CSc2nnc(-c3ccncc3)n2-c2ccc(F)cc2)no1	1.7%	-0.2	-1.4	26	24%	-2%[15.4 µM]
Cc1ccc(OCCC(=O)OCC(=O)Nc2ccc(F)cc2)cc1	0.7%	-0.2	·	2	3%	-6%
Cc1ccc(NC(=O)C2CCCN2S(=O)(=O)c2ccc3c(c2)n(C)c(=O)c(=O)n3C)c(C)c1 (configuration not stated)	·	1.7	-0.8	?	-9%	30%[15.4 µM]
CCOc1ccc(C2C3=C(CC(C)(C)CC3=O)N(CCCOC)C3=C2C(=O)CC(C)(C)C3)cc1OC	-0.8%	0.2	·	-6	·	-29%
O=C(CSc1nnc(-c2ccco2)o1)N1CCN(c2ccccc2)CC1	·	-1.3	-0.9	12	-13%	23%[15.4 µM]
CCOc1ccc(NC(=S)NCCCn2ccnc2)cc1	3.5%	0.8	3.3	-20	8%	0%
CCc1ccc(-c2cn3c(n2)sc2cc(C(=O)NCCC4=CCCCC4)ccc23)cc1	25µM*	-0.4	·	9	·	·
Cc1ccc(S(=O)(=O)N(c2nc(N(C)C)nc(N(C)C)n2)n2cnnc2)cc1	0.8%	1.5	-0.6	-10	0%	-1%
COc1ccccc1-c1coc2c(CN3CCOCC3)c(O)ccc2c1=O	3.8%	-0.6	2.3	-3	14%	-2%
Cc1cc(/C=C(/C#N)c2nc3ccccc3[nH]2)c(C)n1-c1cc(C(=O)O)cc(C(=O)O)c1	·	1.4	?	-10	6%	?
Cc1cccc(-c2nc3nc(C)cc(NC(C)c4ccccc4)n3n2)c1 (configuration not stated)	-3.2%	2.8	·	15	·	·
O=C(c1ccc(CS(=O)c2ccccc2Cl)o1)N1CCN(C2CCCCC2)CC1 (configuration not stated)	2.3%	0.9	·	30	·	?
CCC(CC)C(=O)OCC(=O)Nc1cc(OC)c([N+](=O)[O-])cc1C	-8.1%	2.3	1.9	3	-14%	8%
O=[N+]([O-])c1ccc(CNc2ccc(F)cc2)s1	0.7%	-0.2	3.3	-2	5%	4%[15.4 µM]
CCc1cccc(OCCCCN(CC)CC)c1	0.3%	-0.2	0.6	0	4%	?
C=CCNc1nc2ccccc2nc1NS(=O)(=O)c1ccc(OC)cc1	·	-0.1	-4.9	1	1%	29%
O=C(CCSCc1cccc(Cl)c1)N1CCN(c2ccc(Cl)cc2)CC1	-1.9%	-0.4	·	8	·	·
CC1(C)CC(=Cc2ccccc2[N+](=O)[O-])C(=O)c2ccccc21	0.0%	-0.2	·	5	·	23%
NC(=O)NOCc1ncc(C(F)(F)F)cc1Cl	28µM*	-0.8	0.3	5	2%	2%
O=C(CSc1ccc2ccccc2c1)Nc1ccncc1	-0.9%	0.1	5.5	4	-14%	-3%
CC(C)N(C=O)C1(C(=O)NC2CCCCC2)CCCCC1	0.1%	-1.0	0.3	-2	-2%	-50%[inhibitor]
O=C(Cc1nnc(NC(=O)Nc2ccccc2)s1)NCc1ccccc1	-0.8%	1.4	-1.6	-9	13%	19%
CCCn1cc(S(=O)(=O)c2ccc(C)cc2)c(=O)c2cc(F)c(N3CCCC3)cc21	-5.8%	-0.8	·	-17	·	·
CC(C)CNc1oc(-c2ccco2)nc1C#N	18µM*	1.2	0.0	5	9%	18%
CCc1noc(C)c1C(=O)N(C)CC(=O)Nc1cccc(OC)c1	-0.8%	0.3	·	0	17%	-32%[inhibitor]
CCN1C(=O)N(CC)C(O)(c2ccccc2)C1(O)c1ccccc1 (configuration not stated)	-1.1%	0.2	0.7	8	5%	-85%[inhibitor]
CC(/C=N/NC(=O)c1ccncc1)=C\c1ccco1	0.1%	-0.1	-1.6	12	-8%	19%
CCOc1cc(CNC(=O)c2ccc3nc(C(C)C)oc3c2)cc(OCC)c1OCC	-4.1%	-0.3	·	-8	·	·
Cc1cc(C)nc(N/N=C2/CCCC/C2=C\c2ccccc2)n1	·	-0.8	1.4	4	-7%	-6%[15.4 µM]
CSc1nc(NCC(C)C)nc(N2CCOCC2)n1	-0.6%	0.1	1.9	-15	1%	41%
CCCCCCCC(=O)Oc1ccc(C(=O)Nc2cc(C)on2)cc1	·	-0.1	2.0	-6	-10%	-2%
CC(=O)c1ccc(N2CCN(S(=O)(=O)c3ccc4ccccc4c3)CC2)cc1	-23%	2.7	·	15	-19%	12%
O=C(NCCCN1CCCC1=O)C1CCN(S(=O)(=O)c2c(Cl)cccc2Cl)CC1	1.8%	-0.7	·	-16	1%	-14%
CN(C)CCCOC(=O)c1ccccc1Cl	-25%	0.0	5.7	-7	-10%	-36%
O=C(c1ccc2oc(Cc3ccc(Cl)cc3)nc2c1)N1CCCCC1CCO (configuration not stated)	-1.4%	-0.4	·	3	-10%	8%[15.4 µM]
CCc1ccc(C(=O)c2cn(CC(=O)Nc3ccc4c(c3)OCCO4)c3ccc(F)cc3c2=O)cc1	-4.2%	0.9	·	34	·	·
COc1ccc(C)cc1NC(=O)Cn1c(=O)ccc2cc(S(=O)(=O)N3CCC(C)CC3)ccc21	-4.0%	1.1	·	6	·	·
Cc1ccc(C(=O)Nc2ccc(N3CCOCC3)nc2)cc1	-0.9%	-0.8	5.7	-4	5%	-9%
CCOC(=O)C(C(=O)OCC)N(Cc1cc(OC)ccc1OC)C(=O)C1CC(CO[Si](C)(C)C(C)(C)C)=CN1C(=O)OC(C)(C)C (configuration not stated)	·	0.6	0.4	12	·	·
Cc1ccc(C(=O)CCC(=O)N2CCN(c3ccc(F)cc3)CC2)cc1	-0.2%	0.9	-7.2	56	-3%	-37%
CCN1CCN(CC(O)COC(C)C)CC1 (configuration not stated)	-1.4%	-0.2	-0.8	0	5%	?
O=C(O)c1ccc(Cl)c(NCc2ccncc2)c1	3.8%	-1.2	-7.5	12	11%	-2%[15.4 µM]
Cn1ccnc1C(O)c1cccc(OCc2ccccc2)c1 (configuration not stated)	2.5%	0.3	4.3	8	2%	-26%
COc1ccc(Nc2ncnc3c2nc2n3CCCC2)cc1Cl	-2.9%	1.2	·	15	·	·
O=C(COC(=O)CSc1ccc(F)cc1)NCCCc1ccccc1	·	3.1	·	-1	4%	6%[15.4 µM]
CCCCNC(=NCc1cccc(C(F)(F)F)c1)Nc1ccccc1	·	3.3	-0.5	10	11%	-10%[15.4 µM]
CC(C)C[C@H]1CN([C@@H](Cc2ccc(O)cc2)CN2CCC[C@@H]2CN2C(=S)NC[C@@H]2Cc2ccccc2)C(=S)N1CC1CCCCCC1	1.0%	-0.1	·	35	·	·
Oc1ccc(CNC2CCCCC2)cc1	-2.0%	0.9	2.1	12	-1%	-10%
CCOc1cccc(CN(C)CC2CCCN(CCc3ccc(Cl)cc3)C2)c1O (configuration not stated)	-3.4%	-0.7	-3.2	5	9%	-271%[inhibitor]
O=[N+]([O-])/C=C/c1cn(Cc2ccc(F)cc2)c2ccccc12	-0.7%	4.0	4.5	-7	-22%	4%
COc1ccc(-c2nc3ccccc3c(=O)n2CCCn2ccnc2)cc1	-3.0%	-0.2	0.3	21	7%	-2%
CCOc1cc(N2CCOCC2)c(OCC)cc1NC(=O)c1cc(S(=O)(=O)N2CCOCC2)ccc1F	2.2%	-0.2	·	13	-2%	-18%
CCC(C)[C@H](NC(=O)[C@@H]1Cc2ccccc2CN1)C(=O)NCc1ccc(OC)cc1 (some centres not stated)	-1.9%	·	-1.2	·	-1%	·
